TRPML1 agonist: qHTS for Agonists of the Human Mucolipin Transient Receptor Potential 1 (TRPML1); Mucolipin-1 (Homo sapiens), Q9GZU1; TRPML1-expressing cells, Ca2+ dye fluorescence, FDSS; host cell line not named in the record; reference of the full effect not given here; activation, % (test concentration not listed); 410,000 compounds, 0.12% hits; AID 624414, 2012; in the data active = activation above about 50%; inconclusive = about 30% to 50%; inactive = below about 30%; further: 0% is about no effect; the text of the record puts the active cut at 80%
Target sequence (Q9GZU1 whole entry, looked up): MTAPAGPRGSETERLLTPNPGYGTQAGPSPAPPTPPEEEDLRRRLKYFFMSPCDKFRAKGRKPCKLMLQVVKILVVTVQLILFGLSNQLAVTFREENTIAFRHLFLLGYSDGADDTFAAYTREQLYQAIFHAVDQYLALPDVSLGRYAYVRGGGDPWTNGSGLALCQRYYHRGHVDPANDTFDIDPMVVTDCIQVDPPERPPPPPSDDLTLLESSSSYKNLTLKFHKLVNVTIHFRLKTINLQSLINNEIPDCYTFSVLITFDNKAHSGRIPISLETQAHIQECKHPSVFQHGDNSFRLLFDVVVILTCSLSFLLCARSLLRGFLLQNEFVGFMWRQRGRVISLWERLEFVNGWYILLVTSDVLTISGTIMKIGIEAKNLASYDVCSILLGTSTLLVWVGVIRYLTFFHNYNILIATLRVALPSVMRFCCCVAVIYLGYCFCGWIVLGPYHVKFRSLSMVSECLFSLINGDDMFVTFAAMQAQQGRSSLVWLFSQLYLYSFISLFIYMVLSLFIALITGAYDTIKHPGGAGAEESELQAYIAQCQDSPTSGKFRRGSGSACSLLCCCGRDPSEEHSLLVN
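Tetracycline-induced TRPML1-DL cells are seeded and incubated overnight before loading with a no-wash Ca2+ dye and quencher. Agonist activity is taken from the 110 s fluorescence read following compound pin-transfer on an FDSS, before EC80 54-4 challenge.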
D2 agonist: Beta-Arrestin HTS for Positive Allosteric Modulators of the Human D2 Dopamine Receptor: Agonists; DiscoveRx PathHunter D2 beta-arrestin, luminescence, 90 min; 100% = 57 uM dopamine signal; D(2) dopamine receptor (Homo sapiens), P14416; 360,000 compounds, 0.084% hits; activation, % (no concentration beside the values); in the data active = activation above about 40%; inconclusive = about 15% to 40%; inactive = below about 15%; further: compound concentration not given in the record; the text of the record calls up to 30% inactive
Target sequence (P14416 whole entry, looked up): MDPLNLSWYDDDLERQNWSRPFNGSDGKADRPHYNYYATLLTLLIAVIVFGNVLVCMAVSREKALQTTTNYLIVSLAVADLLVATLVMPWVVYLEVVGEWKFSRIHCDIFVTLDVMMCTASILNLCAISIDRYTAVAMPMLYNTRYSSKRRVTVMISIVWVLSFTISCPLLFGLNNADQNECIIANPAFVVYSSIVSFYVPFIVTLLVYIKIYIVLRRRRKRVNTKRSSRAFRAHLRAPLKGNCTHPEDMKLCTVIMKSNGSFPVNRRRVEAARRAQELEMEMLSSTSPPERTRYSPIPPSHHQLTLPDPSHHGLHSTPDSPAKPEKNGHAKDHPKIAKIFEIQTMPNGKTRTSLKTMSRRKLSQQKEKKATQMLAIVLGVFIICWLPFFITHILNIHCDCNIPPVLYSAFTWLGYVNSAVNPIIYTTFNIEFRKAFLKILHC
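DiscoveRx PathHunter D2 beta-arrestin cells (2,100/well) attached overnight, then compound-stimulated 90 min at 37 C in HBSS/10 mM HEPES/0.1% Tween-20 buffer; beta-galactosidase complementation read by luminescence after 1 h at ambient temperature. Dopamine 57 uM final (EC100) as control.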
PINK1 modulator: A Quantitative High throughput Screen to Identify Chemical Modulators of PINK1 Expression; 410,000 compounds, 0.2% hits; PINK1 immunofluorescence, high-content cytometry, 24 h; Potency, µM (titrated, usually from 76.6 µM), without a hit: at the top dose activation (PINK1 increase), hits mostly activators; active = well fitted activation curve with a large enough effect; inconclusive = small, poorly fitted or top-dose-only effect; inactive = flat fitted curve, though single readings scatter; cell line not stated here;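 further: potency means the concentration at half of the fitted maximal effect; % of control where 0% means no effect; nearly all actives have a fitted effect of over 65% in size; a mitochondrial uncoupler was the plate control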
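Compound titrations (5 concentrations, 24 h) on a stable cell line; DMSO and CCCP controls. Endpoint: fixed-cell PINK1 immunofluorescence with mitochondrial, cell and nuclear markers, scanned by microplate cytometer.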
CtBP-E1A inh: qHTS Assay for Inhibitors of the CtBP/E1A Interaction; CtBP / adenovirus E1A interaction (AlphaScreen); AlphaScreen GST-E1A/His-CtBP binding, 1536-well; active compounds read low; control for the full effect not named in the record; activity change, % (test concentration not listed); 340,000 compounds, 0.49% hits; AID 651724, 2012; in the data active means activity change below about -65%; inconclusive means about -30% to -65%; inactive means above about -30%; further: on the % scale 0 is the no-effect control and ±100 the full control effect
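GST-E1A and His-tagged CtBP (125 nM each as 5X stock) were preincubated with pin-transferred compound for 2 h at 37 °C in the dark, then glutathione donor and nickel acceptor beads were added for 1 h before AlphaScreen reading.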
Six1-Eya2 inh: qHTS Assay for Inhibitors of the Six1/Eya2 Interaction; AID 651725, 2012; AlphaScreen GST-Six1/His-Eya2 binding, biochemical; active compounds read low; control for the full effect not named in the record; activity change, % (no concentration beside the values); 360,000 compounds, 0.56% hits; in the data active = activity change below about -65%; inconclusive = about -30% to -65%; inactive = above about -30%; further: on the % scale 0 is the no-effect control and ±100 the full control effect
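GST-Six1 + His-Eya2 (5X stock: 250/500 nM); Tris pH 8.0, 300 mM NaCl, 0.05% BSA, 0.02% Tween 20; GSH donor/Ni acceptor beads; 1 h 37 °C dark; AlphaScreen readout.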
D2 PAM: Beta-Arrestin HTS for Positive Allosteric Modulators of the Human D2 Dopamine Receptor: Potentiators. D(2) dopamine receptor (Homo sapiens), P14416. DiscoveRx D2 beta-arrestin cells, luminescence, 90 min; 100% = 57 uM dopamine signal. potentiation, % (concentration not given with the values). 360,000 compounds, 0.23% hits; active = potentiation of 50% or more; inconclusive = 30% to 50%; inactive = 30% or less;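 further: tested on top of an EC20 dose of dopamine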
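D2 cells co-treated with compound plus 50 nM dopamine (EC20) for 90 min at 37 deg C to detect potentiation. Beta-arrestin recruitment was read as enzyme-fragment luminescence after 1 h at ambient temperature. Full response was set by 57 uM dopamine.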
* = called active by the depositor; ? = inconclusive; . = not tested or not shown; & = joins results of further samples; [ ] = remark or other dose. Hits appear at their usual frequency; overall some 1.3% were active at least once.

SMILES	TRPML1 agonist	D2 agonist	PINK1 modulator	CtBP-E1A inh	Six1-Eya2 inh	D2 PAM
CC(=O)/C(=N\Nc1ccc(Cl)cc1Cl)Sc1cccc2cccnc12	1.1	-4.5	12%	0	-91*	-21
COc1cc(C(=O)N/N=C2\CCS(=O)(=O)c3ccc(F)cc32)cc(OC)c1OC	-0.1	-1.7	7.7%	-5	-14	-16
CCOc1ccc(CCN2C(=S)N([C@@H](CC(C)C)CN3CCCC3CN3C(=S)NC[C@@H]3Cc3ccc(O)cc3)C[C@@H]2Cc2ccc(O)cc2)cc1 (some centres not stated)	-0.5	1.2	0.2%	-14	-12	-3
CCOC(=O)c1ccc(NC(=S)NNC(=O)COC)cc1	1.1	-3.0	2.5%	-1	-6	-10
CC1CCN(c2ccc(NC(=O)C3CCCN3S(=O)(=O)c3ccc(F)cc3)cc2)CC1 (configuration not stated)	0.8	-6.6	?	-23	?	-3
CC(C)CNC(=S)N(CCN(C)C)Cc1cc2cc3c(cc2[nH]c1=O)OCCO3	0.1	0.0	-0.8%	-6	-1	-2
Cc1cc(=O)[nH]c(SCC(=O)NC2CCCCCCC2)n1	1.4	-0.5	-0.9%	3	-1	-11
Cc1ccc(-n2c(O)cnc2Nc2nc(C)cc(C)n2)cc1	0.3	-1.1	0.2%	0	18	2
C/C(N)=C(/C#N)C(=O)CSc1nnc(SCc2ccc(Cl)cc2)s1	0.0&-0.9	1.5&0.5	14%&6.2%	7&5	-3&6	0&-1
Cc1ccc(N2C(=O)C3C(c4ccccc4)N4CCCN4C3(C)C2=O)cc1 (configuration not stated)	-0.1	-6.6	-0.6%	-22	-3	-9
COC(=O)/C(C#N)=C/c1c(N2CCCCCC2)nc2ccccn2c1=O	-1.2	-1.8	1.2%	-11	-11	-7
COc1cc(C(=O)NCc2cccnc2)ccc1OCC(=O)Nc1cccc(C(F)(F)F)c1	1.1	0.1	3.5%	?	-4	-1
O=C(c1ccc(=O)[nH]n1)N1CCN(S(=O)(=O)c2ccc(C(F)(F)F)cc2)CC1	-1.4	0.5	1.5%	.	-4	-1
CCc1ccccc1NC(=O)C1CCN(S(C)(=O)=O)CC1	0.6	1.1	-1.2%	.	3	2
CCOC(=O)C1CCN(C(=O)C2CCCCC2)CC1	-0.6	-1.6	-1.9%	7	5	-5
OCCC1CN(Cc2cc(F)ccc2-n2cccn2)CCN1Cc1ccc(F)cc1 (configuration not stated)	1.2	-2.5	-1.6%	-10	-8	-23
CC1CCc2c(sc(NC(=O)C3c4ccccc4Oc4ccccc43)c2C(N)=O)C1 (configuration not stated)	-0.6	-1.9	6.7%	-2	-6	5
COCCSc1ccccc1C(=O)Nc1nnc(C)s1	-0.4	0.3	-6.2%[38.3 µM]	2	8	-1
O=C(NC1CCCC1)c1ccc(CS(=O)Cc2ccccc2Cl)o1 (configuration not stated)	-0.2	0.7	-0.4%	2	3	-3
CC(O)(c1cccc(F)c1)c1nc(-c2cc(F)cc(F)c2)cs1 (configuration not stated)	0.9	3.5	-1.6%	12	11	0
COc1cccc(C(=O)Nc2ccc(NC(=O)c3ccco3)c(Cl)c2)c1	0.1	-0.5	9.2%	6	-3	-3
CCCCOc1ccc(C(=O)NCC(=O)OC2CCOC2=O)cc1 (configuration not stated)	1.2	-3.0	-1.0%	1	-1	0
COc1ccc(Br)c(Cn2c(C)c(C(=O)NCc3ccc(F)cc3)sc2=O)c1	-0.5	5.8	1.0%	1	-11	-5
O=C(c1ccco1)N1CCN(S(=O)(=O)N2CCOCC2)CC1	0.2	-0.6	-1.6%[38.3 µM]	5	6	1
COc1ccc(CCCc2nnc(SCc3nc4ccccc4c(=O)[nH]3)n2C)cc1C	2.5	1.9	-3.3%	-10	29	2
(next part)
SMILES	TRPML1 agonist	D2 agonist	PINK1 modulator	CtBP-E1A inh	Six1-Eya2 inh	D2 PAM
COc1ccc(NC(=O)CSc2cccc3cccnc23)c(OC)c1	-0.7	-0.4	1.2%	-6	-21	-23
C=CCOC(=O)C1=C(C)NC(SCC(=O)OCC)=C(C#N)C1c1ccc(O)c(OC)c1 (configuration not stated)	-1.8	3.3	18%	-3	1	13
O=C(c1ccc(-c2ccccc2)cc1)N1CCN(c2ccccc2)CC1	1.7	0.7	11%	1	1	0
S=c1[nH]ncn1/N=C/c1cccs1	0.5	9.8	0.0%	1	6	-5
CCOc1cccc(CN2CCC(Oc3ccc(C(=O)N4CCCC4)cc3)CC2)c1O	0.0	-3.6	0.3%	-1	-12	-10
Cc1c(C(=O)NC(=S)NCc2cccnc2)cccc1[N+](=O)[O-]	-0.1	2.3	-0.2%	1	8	-4
CCN1C(=O)c2ccccc2S(=O)c2ccc(C(=O)N3CCN(C(=O)c4ccco4)CC3)cc21 (configuration not stated)	-0.6	2.2	0.2%	-2	-1	-1
O=C(CSc1ccccn1)Nc1nc2c(ccc3ccccc32)s1	2.6	-0.6	5.4%	0	-6	-12
Cn1c(=O)c2nc(Cl)c(-c3ccccc3)nc2n(C)c1=O	0.1	-5.7	-0.3%	5	-10	-18
CC(=O)c1c(C)[nH]c(C(=O)N(CCc2ccccc2)Cc2ccccc2)c1C	-0.9	-2.2	2.8%	0	1	-5
CC1(C)CC(=O)c2sc(NC(=O)CN3C(=O)CCC3=O)nc2C1	-0.3	-3.5	0.6%	-1	13	-5
O=C1C=CC(=O)N1CCCCCCCCCCN1C(=O)C=CC1=O	1.0	-2.2	-1.8%	-6	-12	-17
COc1cccc(NC(=O)CCC2CCN(C(=O)c3sccc3C)CC2)c1	0.5	-5.9	1.7%	7	0	-14
COc1ccc(C(=O)Nc2nnc(S(=O)(=O)N(C)Cc3ccc(F)cc3)s2)cc1OC	1.0	-1.8	0.1%	-4	-1	-7
CC1CCN(CCC(=O)N2CCCc3c2c(=O)oc2ccc(O)cc32)CC1	-0.4	-0.2	-3.0%[38.3 µM]	-5	-2	-12
COC(=O)c1sccc1NC(=O)CC1C(=O)NCCN1C(=O)Nc1ccc(F)cc1F (configuration not stated)	-0.1	-3.6	3.9%	4	-17	-11
N#CC1=C(S)N(c2ccc(F)cc2)C(c2ccco2)NC1=O (configuration not stated)	0.1	-5.6	0.5%	4	-5	-5
CC(=NNC(N)=S)c1ccc2cc3c(cc2c1)OCO3	-1.0	0.3	5.2%	-12	-28	-12
COc1ccc2c(c1O)Cc1ccccc1C2=O	1.2	8.1	11%	-16	-15	-1
COc1cc2c(cc1OC)CN(Cc1cc(=O)oc3cc(C)c(Cl)cc13)CC2	-0.7	-5.4	9.9%	5	4	-12
CC(=O)N/N=C(\C)CC(=O)NC(C)(C)C	1.2	0.0	1.5%	.	6	-2
COc1ccc2[nH]c(=O)c(CN(Cc3cccs3)S(=O)(=O)c3c(C)ccc4nsnc34)cc2c1	0.3	-0.2	-4.2%	-11	-8	5
CN1CCN(S(=O)(=O)c2ccc(Cc3ccc(S(=O)(=O)N4CCN(C)CC4)cc3)cc2)CC1	-0.4	-0.4	-1.9%	-4	-1	-22
CC(OC(=O)CN1C(=O)NC(C)(C)C1=O)C(=O)c1ccccc1 (configuration not stated)	0.8	-1.8	2.5%	-1	9	-1
COc1cc(CNC(C)C)ccc1OCC(=O)Nc1cccc2ccccc12	-0.1	-3.0	5.0%	0	21	-22

Ordered by count of non-hydrogen atoms (lowest first): part of the list above.
SMILES	TRPML1 agonist	D2 agonist	PINK1 modulator	CtBP-E1A inh	Six1-Eya2 inh	D2 PAM
O=C(CSc1ccccn1)Nc1nc2c(ccc3ccccc32)s1	2.6	-0.6	5.4%	0	-6	-12
COc1ccc(C(=O)Nc2nnc(S(=O)(=O)N(C)Cc3ccc(F)cc3)s2)cc1OC	1.0	-1.8	0.1%	-4	-1	-7
CCN1C(=O)c2ccccc2S(=O)c2ccc(C(=O)N3CCN(C(=O)c4ccco4)CC3)cc21 (configuration not stated)	-0.6	2.2	0.2%	-2	-1	-1

Following part
SMILES	TRPML1 agonist	D2 agonist	PINK1 modulator	CtBP-E1A inh	Six1-Eya2 inh	D2 PAM
Cc1ccc(NS(=O)(=O)c2ccc(NC(=O)CSc3ccc(Cl)cc3)cc2)c(C)c1	0.8	2.3	2.3%	-4	-1	21
Cc1ccc(OCC(=O)N(Cc2cccs2)C2CCS(=O)(=O)C2)cc1 (configuration not stated)	0.7	-2.9	-0.9%	5	10	0
COc1cc(/C=N/NC(=O)[C@H](Cc2c[nH]c3ccccc23)NC(=O)OCC(C)C)cc([N+](=O)[O-])c1O	2.3	-1.9	-1.9%	-25	?	-7
COc1ccc2nc(NC(=O)C3CCN(S(=O)(=O)c4cnc[nH]4)CC3)sc2c1	-0.5	-1.0	0.1%	-18	-2	-7
O=C(c1ccccc1)c1ccc(OCCCN2CCCC2)cc1	-0.3	0.9	-0.6%	-5	2	-1
CCOc1ccc2c(S(=O)(=O)O)cccc2c1[N+](=O)[O-]	0.4	-2.3	-0.7%	-3	-12	6
CC(C)N(Cc1ccccc1)C(=O)CN1C(=O)COc2ccc(S(=O)(=O)NC3CCCC3)cc21	-0.3&0.3	4.3	0.0%&1.6%	1	3	-10
COc1cc(CCCN2C(=O)C(=O)NC[C@@H]2CCCCN)cc(OC)c1OC	0.0	-1.8	1.5%	.	1	-4
O=C(Nc1ccc(Cl)cc1)C1Cc2c(-c3ccc(Cl)cc3)ccnc2O1 (configuration not stated)	-0.2	-4.2	?	1	1	-18
Cc1ccc(C2CN(CCC(N)=O)C(=O)CO2)cc1 (configuration not stated)	0.1	-6.0	1.3%	.	3	-8
O=S(=O)(NCC1CCCO1)c1cccc(S(=O)(=O)N2CCCC2)c1 (configuration not stated)	-0.8	-0.6	2.1%	0	1	-1
CCc1ccc(NC(=O)C2CCN(S(=O)(=O)c3ccc4c(c3)CC(C)N4C(C)=O)CC2)cc1 (configuration not stated)	-0.5	12	1.9%	-1	-1	-22
CN1CCN(C(=O)c2ccccc2NC(=O)CCN2C(=O)c3ccccc3C2=O)CC1	0.1	-2.8	-0.6%	9	5	0
CCCn1c(-c2ccccc2)cc(SC)c(C#N)c1=O	3.4	-5.6	4.8%	-10	13	-18
Nc1nnc(SCC(=O)NC23CC4CC(CC(C4)C2)C3)s1	-0.3	-1.4	.	3	3	0
COc1ccc(NC(=O)C(=O)NCC(c2ccco2)N2CCc3ccccc32)cc1 (configuration not stated)	-0.3	-2.0	3.6%	2	1	1
CC(C)c1ccc(OCC(=O)N2CCN(c3ccccn3)CC2)c(Br)c1	2.6	-2.7	?	1	9	-10
COc1ccc2oc3cc(NCCN(C)C)ccc3c(=O)c2c1	0.1	-4.3	-1.4%	-75*	-70*	-13

Source: PubChem (National Center for Advancing Translational Sciences (NCATS))
